Assay outcomes: PubChem BioAssay, ICCB-Longwood Screening Facility, Harvard Medical School
MgrA DNA FP – alters Staphylococcus aureus MgrA binding to DNA. actives 0.13% (n = 84,000). inhibition, %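 (about 10 µg/mL by stock and volumes)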. fluorescence polarization;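 active = above 50% in either of two replicates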;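 note: 0% = protein plus DNA without compound and 100% = DNA alone without protein; higher means less MgrA bound to DNA so lower polarization; one replicate is shown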
S aureus helic – blocks Staphylococcus aureus DNA helicase | purified S. aureus helicase, fluorescence unwinding assay; about half of the hits fall short of the stated cut | inhibition, %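 (tested at about 80 µM)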 | actives 0.05% (n = 120,000) | AID 485395;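 active = both duplicates at 50% or more, or one of them with a favoured structure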;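 note: 0% = mean of negative control wells and 100% = mean of positive control wells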
Starred values were filed as active, the others as inactive; · = not tested or not shown. Only part of the results is shown, so the mix of outcomes need not match the whole.

No.	Compound	MgrA DNA FP	S aureus helic
1	Cc1cc(N2C(=O)CS/C2=C(/C#N)C(=O)C(C)(C)C)ccc1Cl	·	-56.0
2	CC(C(=O)NCCCN1CCOCC1)N1c2cccc3cccc(c23)S1(=O)=O (stereo unspecified)	-0.9	9.0
3	CC1CCN(C(=O)C2CCN(S(=O)(=O)c3cnc[nH]3)CC2)CC1	·	-29.0
4	O=C(Nc1ccccc1C(=O)O)c1cc(S(=O)(=O)N2CCOCC2)cs1	·	1.0
5	Cc1sc2c(c1C)c(=O)n(-c1ccc(Cl)cc1)c(=O)n2CC(=O)NC1CCCCC1	1.7	-10.0
6	CN(CCC#N)c1ccc(C=Nc2ccc(C(=O)O)cc2)cc1	-1.9	·
7	CC1CCN(C(=O)CCCN2C(=O)C(c3ccccc3)Oc3cccnc32)CC1 (stereo unspecified)	·	-4.0
8	CCOC(=O)c1c(C)n[nH]c1C	-2.7	·
9	Nc1ccn(C2CC(O)C(CO)O2)c(=O)n1 (stereo unspecified)	-4.3	-14.0
10	CCCCc1ccc(S(=O)(=O)NNC(=S)NCc2ccco2)cc1	1.3	-5.0
11	CCN(c1ccccc1)S(=O)(=O)c1ccc(CN2C(=O)c3cccnc3C2=O)cc1	·	-1.0
12	COC(=O)C(NC=O)C(O)(Cc1ccccc1)C(F)(F)F (stereo unspecified)	·	0.0
13	CN(C(=O)CSc1ncc(-c2ccccc2)n1C)C1(C#N)CCCCC1	·	-8.0
14	CCS(=O)(=O)N1Cc2ccccc2CC1C(=O)NC1=NCCS1 (stereo unspecified)	·	15.0
15	Nc1nc2c(s1)CCc1nonc1-2	·	-5.0
16	CC(C)N(Cc1nc(-c2ccccc2)no1)C(=O)Cc1ccccc1	·	10.0
17	CCc1ccc(NC(=O)CN(C)S(=O)(=O)c2cccc3cccnc23)cc1	·	-21.0
18	CC(C)NC(=O)C1CCCN(S(=O)(=O)c2ccc(-n3cnnn3)cc2)C1 (stereo unspecified)	1.9	4.0
19	CC1Cc2ccccc2N1S(C)(=O)=O (stereo unspecified)	0.6	0.0
20	CCOC(=O)c1nnn2c1nc(N(CC)CC)c1ccccc12	0.8	·
21	CC1(C)NC(C)(C)c2nonc2/C1=N\O	0.2	17.0
22	Oc1ccc(Cl)cc1C=NCCc1c[nH]c2ccccc12	4.7	15.0
23	CC(c1ccccc1F)n1cc(C(=O)NCC2CCCO2)nn1 (stereo unspecified)	-3.1	-3.0
24	O=C(CC1Oc2ccccc2NC1=O)NC1CC1 (stereo unspecified)	·	10.0
25	Cc1nn(Cc2ccccc2)c(C)c1CC(=O)O	0.8	-2.0
26	CS(=O)(=O)N(CC(=O)N1CCOCC1)c1cccc2ccccc12	-0.9	3.0
27	CCOC(=O)c1cn2nc(Oc3ccc(C(=O)OC)cc3)ccc2n1	·	2.0
28	Cc1ccc(C)n1Cc1cccs1	·	-6.0
29	COc1cc(S(=O)(=O)N2CCN(c3ccccc3F)CC2)c(OC)cc1Cl	0.5	-5.0
30	Cn1c(=O)nc2n(-c3cccc(C(F)(F)F)c3)c3ccccc3cc-2c1=O	-2.3	2.0
31	COC(=O)c1c(C)[nH]c(-c2csc(N)n2)c1C	·	8.0
32	O=C(c1cccc(NS(=O)(=O)c2ccc(F)c(F)c2)c1)N1CCCCC1	0.6	-9.0
33	C=CCN1CCN(C(=O)C2CC2)CC1	2.7	7.0
34	Oc1c(C(c2ccc(F)cc2)N2CCCCC2)ccc2cccnc12 (stereo unspecified)	-3.0	-10.0
35	O=C(O)CC1(c2ccccc2)C(=O)c2ccccc2C1=O	2.0	3.0
36	CN(CCCc1ccccc1)CCc1ccccn1	-0.5	13.0
37	O=S(=O)(Nc1cccc(-c2ccc(N3CCCCC3)nn2)c1)c1ccc2c(c1)OCCO2	·	7.0
38	CCOC(=O)C1=C(NN(C)c2ccccc2)C(=O)N(C)C1	-1.2	9.0
39	CC(C)=CC(=O)Nc1nc(C)c(C)s1	3.0	5.0
40	C=CCn1c(N)c(-c2nc3ccccc3[nH]2)sc1=S	5.3	-5.0
41	Cc1[nH]c(=O)[nH]c(=O)c1S(=O)(=O)NC1CCCCC1C (stereo unspecified)	·	5.0
42	CC1CN(CC(=O)Nc2ccc(S(N)(=O)=O)cc2)CC(C)O1 (stereo unspecified)	·	-18.0
43	O=C(O)c1cc2c(s1)CS(=O)(=O)C2	·	10.0
44	Nc1c(C(=O)NC2CC2)sc2nc(-c3ccncc3)ccc12	8.9	8.0
45	O=C(O)CCN1CCN(c2cccc(Cl)c2)CC1	-4.0	15.0
46	Cc1cccc2nc(CSCc3ccco3)cn12	2.0	14.0
47	O=C(Cc1csc(Nc2nc(=S)[nH]c3ccccc23)n1)NCc1cccc(Cl)c1	0.6	8.0
48	Cc1ccc(C(=O)O)cc1Nc1nc2ccccc2n2cnnc12	·	11.0
49	O=C1CCCN1c1ccc(S(=O)(=O)Nc2noc3ccccc23)cc1	0.0	7.0
50	CCOC(=O)C1=C(C)OC(N)=C(C(=O)OCC)C1c1cccnc1 (stereo unspecified)	-5.5	0.0

More compounds follow.
No.	Compound	MgrA DNA FP	S aureus helic
51	Cc1[nH]c2ccc(-c3nnc(SCC(=O)N4CCc5ccccc54)o3)cc2c1C	1.4	-1.0
52	CCCOC(=O)C(N)c1ccccc1 (stereo unspecified)	-2.8	0.0
53	Cc1ccc(N2C(=O)N(CC(=O)N3CCC(C)CC3)c3ccccc3S2(=O)=O)cc1	·	0.0
54	Clc1ccc(-c2cncn2N2CCCCC2)cc1	-0.1	·
55	Cc1cccc(C(=O)OCC(=O)NCc2ccccc2Cl)c1O	2.2	-24.0
56	CC1=C(/C=C/C(C)=N\NC(=O)c2ccncc2)C(C)(C)CCC1	·	17.0
57	CC1=C(C(=O)Nc2ccc(F)cc2)C(c2ccc(F)cc2)C2=C(CCCC2=O)N1 (stereo unspecified)	·	8.0
58	Nc1ccccc1-c1nnc(SCc2ccccc2)[nH]c1=O	·	-14.0
59	CCOc1cccc2cc(-c3nnc(Nc4ccc(Cl)cc4Cl)s3)c(=O)oc12	1.0	·
60	CC(C)(C)c1nnc2sc(SCC(=O)NCc3ccco3)nn2c1=O	·	-2.0
61	Cc1sc(-n2c(C)cc(/C=C(\C#N)C(=O)NCc3ccco3)c2C)c(C#N)c1C	2.1	-5.0
62	COc1ccc(C(=O)NCCSc2ccccc2C)cc1	-0.7	3.0
63	CCOC(=O)c1ccc(Nc2nc3ccccc3n3cnnc23)cc1	·	-19.0
64	S=C1N[C@H]2CCCC[C@@H]2N1	·	-22.0
65	COC(=O)c1ccc(NC(=O)CSC2=NC(=O)CC(=O)N2)cc1	·	-18.0
66	Cc1ccc(NS(=O)(=O)c2ccccc2)c(NS(=O)(=O)c2ccccc2)c1	5.0	·
67	Cc1ccc(N=Cc2ccc3c(c2)OCO3)c(Br)c1	1.0	-1.0
68	O=C(c1ccc2c(c1)OCO2)c1cc2ccc(O)cc2oc1=O	·	15.0
69	COc1cc(C(=O)NCc2nnc(SCC(=O)Nc3cc(C)on3)o2)cc(OC)c1OC	·	-3.0
70	O=S(=O)(c1ccc(N2CCOCC2)nc1)N(Cc1ccccn1)Cc1ccccn1	-2.2	·
71	CC(C)(C)C(=O)Nc1nnc(SCc2ccc(Cl)cc2Cl)s1	-0.7	12.0
72	O=C(CSc1ncn[nH]1)CSc1ncn[nH]1	0.5	0.0
73	N#Cc1ccccc1Nc1ccnc(C(F)(F)F)c1	2.2	·
74	CN(CCO)c1nc(N)c2c(N)nc3c(c2c1C#N)CC(=O)N3C1CCCC1	·	-1.0
75	COC(=O)Cc1cccc2ccccc12	-2.2	-11.0
76	O=C(COC(=O)c1ccc(Cl)cc1)NC1CCS(=O)(=O)C1 (stereo unspecified)	·	-4.0
77	Cc1ccc(SCc2cn3c(C)csc3n2)cc1	·	-22.0
78	CCN/C=C(\C#N)S(=O)(=O)c1ccc(Br)cc1	-1.5	·
79	CC(C)(C)c1ccc(C(=O)Nc2c3c(nn2-c2cccc(Cl)c2)CS(=O)C3)cc1 (stereo unspecified)	·	6.0
80	COc1cccc(NCc2nnc(-c3ccccc3)o2)c1	·	21.0
81	CCOC(=O)c1c(NC(=O)C2=CC(c3cccs3)=NS(=O)(=O)N2C)sc(C)c1C	·	-42.0
82	O=C(O)COc1ccc(/C=C2\COc3ccccc3C2=O)cc1	·	-1.0
83	COc1cc(C(=O)c2cc(Cl)ccc2N)ccc1O	-0.8	·
84	C=CCN1C(=O)/C(=C/c2cc(C)n(CCOC)c2C)C(=O)NC1=S	22.6	-20.0
85	O=c1cc(-c2ccccc2)c2cc3c(cc2[nH]1)OCCO3	·	-4.0
86	Cc1ccnc(N2C(=O)CCC2=O)c1	0.6	·
87	CN(Cc1ccccc1)C(=O)c1cc(-c2ccccc2O)no1	·	32.0
88	COc1ccc(N2CCN(C(=O)c3nn(-c4ccccc4)nc3C)CC2)cc1	·	-4.0
89	CN(C)/C=N/c1c(C#N)cnn1-c1ccc(F)c(Cl)c1	-0.5	·
90	CC1=CC(=O)C(N(C)C2CCS(=O)(=O)C2)=CC1=O (stereo unspecified)	·	-5.0
91	CN(C)c1nc(Oc2ccc(=O)[nH]n2)nc(N2CCCCC2)n1	1.8	0.0
92	O=C(O)CC1OC(=O)c2cc3c(cc21)C(=O)OC3CC(=O)O (stereo unspecified)	·	7.0
93	O=C1NC(=O)C(Cc2ccc(C(=O)O)cc2)S1 (stereo unspecified)	·	-15.0
94	COC(=O)C1=C(C)NC2=C(C(=O)CC(c3ccc(OC)cc3)C2)C1c1cc(Br)c(O)c(OC)c1 (stereo unspecified)	3.2	·
95	C=CCNC(=O)CC1Nc2ccccc2NC1=O (stereo unspecified)	-5.5	7.0
96	CSc1ccc(Oc2cc(F)ccc2C#N)cc1	-0.1	·
97	COc1ccc2c(c1)=C(c1sc(=S)[nH]c1O)C(=O)N=2	8.8	17.0
98	CC1CCCC(C)N1C(=O)c1ccc(NC(=O)C(O)(c2ccccc2)c2ccccc2)cc1 (stereo unspecified)	2.9	10.0
99	COc1ccc(CCNc2cc3c(nn2)Oc2ccccc2N3C)cc1OC	1.4	11.0
100	COC(=O)c1ccccc1NC(=O)c1ccc2c(c1)CC(C)O2 (stereo unspecified)	-6.6	-12.0

Next section.
No.	Compound	MgrA DNA FP	S aureus helic
101	Cc1cc(C)cc(NC(=S)NC2CCCCC2)c1	-1.7	·
102	CSc1nc2cc(Cl)c(Cl)cc2[nH]1	-3.2	·
103	Cc1ccc(C2SCC(=O)N2Cc2cn3ccsc3n2)o1 (stereo unspecified)	·	7.0
104	CC(=O)Nc1c(C(=O)c2ccc(Cl)cc2)sc2nc(C)cc(C)c12	-1.2	·
105	COC(=O)c1sc2cc(Cl)ccc2c1O	3.5	·
106	Oc1ccc(Br)cc1-c1cc(-c2ccco2)[nH]n1	-1.4	-24.0
107	CCOC(=O)/C(C#N)=C/c1ccc(OC(=O)c2nn(C)cc2Br)cc1	·	-5.0
108	CC1CC(NC(=O)CCn2c(=O)oc3ccccc32)CC(C)(C)C1 (stereo unspecified)	-1.0	10.0
109	COc1ccc(-c2nn(C)c(=O)c3ccccc23)cc1CNC(=O)c1ccco1	-1.2	4.0
110	Cn1cccc1C1=C(C#N)C(c2ccc(C#N)cc2)C(C#N)=C(N)O1 (stereo unspecified)	-1.5	·
111	Cc1ccc(CN2C3CCCC2CC(NC(=O)Nc2ccc(C#N)cc2)C3)cc1 (stereo unspecified)	-1.9	1.0
112	O=c1[nH][nH]c(=S)n1CCc1ccccc1	·	-3.0
113	COc1ccc(CSc2nc3ccccc3n2CCC#N)cc1F	·	6.0
114	O=C(O)c1ccc2c(c1)CCCN2	-2.5	·
115	CC(C)(C)NC(=O)CCCN1C(=O)/C(=C\c2ccco2)SC1=S	·	9.0
116	Cc1[nH]nc2c1C(c1ccco1)N(C)C2=O (stereo unspecified)	-2.4	3.0
117	CC(=O)N1CCC(Nc2ccc(C)cc2)CC1	·	13.0
118	CCc1nnc(NC(=O)c2ccc(S(=O)(=O)N3CCc4ccccc4C3)cc2)s1	-1.9	0.0
119	CCOc1nc2cccnc2n(Cc2cc(=O)n3ccccc3n2)c1=O	·	18.0
120	O=C(CSc1nn2c(=O)cnnc2s1)N1CCc2ccccc21	·	17.0
121	CN(C(=O)CSc1nnc(-c2cccs2)o1)C1CCCCC1	·	-10.0
122	Cc1cc(-c2ccco2)n(CC(=O)NCc2ccccc2)n1	·	-3.0
123	Cc1cc(C(=O)N=c2sccn2Cc2ccc(Cl)cc2Cl)on1	·	-6.0
124	O=C(COc1ccc(Cl)cc1)n1cnnc1	-1.1	6.0
125	CN(C)/C=C/C(=O)c1cc(F)cc(F)c1O	·	-7.0

Reformatted with each value named: part of the list above
(78) CCN/C=C(\C#N)S(=O)(=O)c1ccc(Br)cc1
  MgrA DNA FP: -1.5	S aureus helic: ·

(79) CC(C)(C)c1ccc(C(=O)Nc2c3c(nn2-c2cccc(Cl)c2)CS(=O)C3)cc1 (stereo unspecified)
  MgrA DNA FP: ·	S aureus helic: 6.0

The list goes on:
No.	Compound	MgrA DNA FP	S aureus helic
126	Nc1cc(=O)[nH]c(SCCOc2ccccc2)n1	-5.8	2.0
127	Oc1ccccc1/C=N/c1ccccn1	·	7.0
128	N#CCCN(Cc1ccco1)S(=O)(=O)c1cccc(C(F)(F)F)c1	-2.0	·
129	O=c1onc(-c2cccnc2)n1-c1cccc(C(F)(F)F)c1	-1.6	·
130	CCN(Cc1ccc(OC)c(F)c1)C(=O)c1ccccc1-n1cnnn1	·	-4.0
131	CCC(C(=O)NC1CCCC1)n1c2ccccc2c2nc(=O)cc(C)n21 (stereo unspecified)	1.7	23.0
132	CCCCN(CC)C(=O)C1c2ccccc2C(=O)N(CCOC)C1c1ccc(F)cc1 (stereo unspecified)	1.6	-1.0

Sorted by molar mass (lowest first): 3 of the compounds above.
No.	Compound	MgrA DNA FP	S aureus helic
131	CCC(C(=O)NC1CCCC1)n1c2ccccc2c2nc(=O)cc(C)n21 (stereo unspecified)	1.7	23.0
130	CCN(Cc1ccc(OC)c(F)c1)C(=O)c1ccccc1-n1cnnn1	·	-4.0
132	CCCCN(CC)C(=O)C1c2ccccc2C(=O)N(CCOC)C1c1ccc(F)cc1 (stereo unspecified)	1.6	-1.0
